Compound activity (PubChem BioAssay)
FGF22 binding = FGF22 (human) thermal shift binding; 1.5% of 340,000 active; Q9HCT0; calls only at 9.99 µM; recombinant FGF22 thermal shift, SYPRO orange fluorescence; percent of sucrose octasulfate shift, DMSO zero;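 active = melting point raised past a set limit in the mean and every replicate; three in four hits are not shown here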
Target sequence (Q9HCT0 whole entry, looked up): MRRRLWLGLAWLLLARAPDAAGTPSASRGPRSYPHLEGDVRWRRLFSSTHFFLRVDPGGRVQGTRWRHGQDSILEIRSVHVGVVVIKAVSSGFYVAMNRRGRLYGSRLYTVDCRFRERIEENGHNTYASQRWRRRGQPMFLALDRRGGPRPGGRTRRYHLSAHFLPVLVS
E coli growth = blocks Escherichia coli growth; 0.21% of 330,000 active; OD600 absorbance (test concentration not listed); OD600, 23 h; active compounds read low;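 active = OD600 absorbance below the run mean of sample wells minus 3.6 SD, in any replicate, cut at about 0.56 in these data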;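 note: stock transfer was 300 nL into about 60 µL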
T cruzi repl = blocks replication of Trypanosoma cruzi | T. cruzi beta-gal in NIH3T3, luminescence, 90 h | inhibition, % (test concentration not listed) | 1.4% of 300,000 active;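 active = mean inhibition across valid replicates above about 55%, limit read from the data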;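 note: signal also drops with host cell toxicity which is not excluded here; 0% = plate median of DMSO wells and 100% = zero luminescence signal; higher percent means less beta-gal luminescence so fewer parasites; stock transfer was 50 nL into about 50 µL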
UCH37 inh = inhibitors of human deubiquitinating enzyme UCH37. Q9Y5K5. purified proteasome/UCH37, Ub-AMC cleavage fluorescence. inhibition, % (no concentration beside the values). 0.33% of 330,000 active;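 active = mean of two replicates above 20%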;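 note: 0% = compound-free wells with enzyme and 100% = wells lacking proteasome; stock transfer was 100 nL into about 20 µL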
Target sequence (Q9Y5K5 whole entry, looked up): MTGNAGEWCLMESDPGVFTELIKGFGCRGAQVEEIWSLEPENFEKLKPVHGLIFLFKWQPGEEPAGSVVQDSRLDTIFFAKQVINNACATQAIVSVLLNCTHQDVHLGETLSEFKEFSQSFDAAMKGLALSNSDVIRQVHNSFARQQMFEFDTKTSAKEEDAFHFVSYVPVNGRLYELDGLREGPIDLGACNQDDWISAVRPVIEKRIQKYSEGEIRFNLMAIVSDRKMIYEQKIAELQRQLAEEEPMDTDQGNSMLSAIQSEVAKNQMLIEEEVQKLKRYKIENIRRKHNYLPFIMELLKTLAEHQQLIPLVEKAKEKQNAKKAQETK
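system = Proteasome-associated human UCH37 deubiquitinase | amount = 0.15 nM proteasome as dispensed | medium = pH 7.4 Tris-HCl (50 mM) with ovalbumin, ATP-MgCl2, DTT | incubation = 30 min preincubation with enzyme, 25 min cleavage at room temperature | detection = AMC fluorescence 355/460 nm | read-out basis = percent inhibition | controls = no-proteasome and no-compound wells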
Beta apoptosis = beta cell apoptosis inhibition; INS-1E cytokine-induced death, ATP luminescence, 48 h; percent of positive-control rescue, neutral wells zero; protection from apoptosis, % (test concentration not listed); 0.8% of 300,000 active; AID 435005;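 active = all replicates at 75% or more, or half of them and the mean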;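 note: 0% = cytokine-treated negative control wells and 100% = positive control rescue; higher means more ATP so stronger rescue from cytokine killing; wells of about 40 µL received 100 nL stock; the first replicate is given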
rRNA inh HTS = inhibitors of bacterial rRNA selective over humanized ribosomes; E. coli WT GFP vs humanized-ribosome RFP mutants, fluorescence, 24 h; active compounds read low; DMSO median 0, no signal -100; GFP signal change (wild-type ribosome), % (concentration not given with the values); 1.6% of 350,000 active;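 active = significant combined selectivity score with lowered wild-type GFP, culture density cut under 30%, mutant RFP and density less affected; inactive = any of these conditions unmet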; note: one replicate is shown; some compounds called inactive have numbers as strong as hits
MLL AF4-AF9 inh = blocks AF4 peptide binding to human AF9. P42568. AlphaScreen, biotin-AF4 peptide binding to FLAG-AF9. inhibition, % at 10 µM. 0.47% of 350,000 active. AID 651704;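 active = every replicate reaching a set inhibition limit, whatever the replicate mean, cut at about 25% in these data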;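 note: 0% = plate neutral control median and 100% = total signal loss; the record names both 10 and 1 µM as test concentration; the first replicate is given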
Target sequence (P42568 whole entry, looked up): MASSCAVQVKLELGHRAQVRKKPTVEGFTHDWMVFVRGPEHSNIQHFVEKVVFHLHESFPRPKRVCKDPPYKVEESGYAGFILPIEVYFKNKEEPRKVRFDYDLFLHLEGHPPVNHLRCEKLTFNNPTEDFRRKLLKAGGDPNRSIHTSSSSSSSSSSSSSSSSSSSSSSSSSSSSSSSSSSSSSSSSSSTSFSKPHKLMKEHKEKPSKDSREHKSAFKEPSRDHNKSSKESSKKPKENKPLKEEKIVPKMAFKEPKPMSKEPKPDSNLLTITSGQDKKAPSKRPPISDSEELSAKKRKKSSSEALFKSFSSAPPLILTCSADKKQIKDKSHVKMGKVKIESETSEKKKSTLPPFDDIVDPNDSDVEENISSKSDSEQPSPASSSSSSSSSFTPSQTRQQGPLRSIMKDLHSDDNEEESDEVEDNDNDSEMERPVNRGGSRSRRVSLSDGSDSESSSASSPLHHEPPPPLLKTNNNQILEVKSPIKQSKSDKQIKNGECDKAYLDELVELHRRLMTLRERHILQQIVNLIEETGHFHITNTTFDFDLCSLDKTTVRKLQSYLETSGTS
Bfl-1 A1 inh = inhibitors of the anti-apoptotic protein A1, read as caspase activation; caspase activation, % (concentration not given with the values); AID 2462; MEF A1-2A-BIM cells, Caspase-Glo 3/7 luminescence, 3 h; percent of clofoctol response, vehicle zero; 0.066% of 330,000 active;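 active = over half of replicate activation scores above 10%, or exactly half above 10 with the replicate mean above 10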;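 note: wells of about 30 µL received 50 nL stock; many hits fall short of the cut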
rRNA inh HTS OD600 = also measured in rRNA inh HTS; calls as there; OD600 change, %; measured here: OD600 growth;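 optical density of the mix in the first replicate; 0 = DMSO median and -100 = no signal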
rRNA inh HTS RFP = also measured in rRNA inh HTS; calls as there; RFP signal change, %; measured here: RFP humanized mutant strains;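 first replicate; 0 = DMSO median and -100 = no signal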
Active calls of the source: *; i = inactive; nt = not tested or not shown. A portion of the library; rates above refer to the full screens.

SMILES	FGF22 binding	E coli growth	T cruzi repl	UCH37 inh	Beta apoptosis	rRNA inh HTS	rRNA inh HTS OD600	rRNA inh HTS RFP	MLL AF4-AF9 inh	Bfl-1 A1 inh
CN(Cc1ccccc1)C(=O)c1ccccc1N(C)S(=O)(=O)c1ccccc1	i	0.697	nt	2.3	nt	-9.6	-2.4	3.4	-2.3	nt
CN(c1ccc(OCC(=O)OCC(=O)Nc2ccc([N+](=O)[O-])cc2)cc1)S(=O)(=O)c1cccs1	i	0.69	nt	4.4	nt	-6.1	0.2	1.1	-1.4	nt
Cn1c(-c2ccccc2)cc(=O)c2ccccc21	nt	0.644	12.2	3.8	-4.6	nt	nt	nt	nt	0.8
CCOC(=O)CCSCC(=O)Nc1nnc(C)s1	i	0.743	7.3	1.6	1.4	4.9	7.6	-1.8	17.2	0.3
CCOc1ccc(NC(=O)CSc2n[nH]c(N)n2)c([N+](=O)[O-])c1	nt	0.663	-10.6	3.6	-3.4	nt	nt	nt	nt	0.1
Cc1cc([N+](=O)[O-])c(C(C)(C)C)cc1N	nt	0.664	5.2	2.9	-2.7	nt	nt	nt	nt	-0.2
CCCN1CNC(=S)N(c2cccc(C)c2C)C1	nt	0.717	-0.2	0.2	2.3	nt	nt	nt	nt	0.2
O=C(CNc1ccc2ccccc2c1)N/N=C/c1ccc(C(=O)O)cc1	i	nt	-7.0	nt	-8.6	4.8	3.0	-1.0	4.5	0.2
CCCCN(CCCC)C(=O)C1CC=CCC1C(=O)O (stereo not given)	i	0.673	-11.3	2.3	-4.8	20.8	5.0	-2.3	-1.2	0.0
O=C(Nc1ccc2c(c1)OCO2)O[C@@H]1C[C@H]2CCC(=O)N3CC[C@@H](C1)[C@@H]23	i	nt	-0.9	5.9	-0.5	1.2	8.4	-4.3	-12.1	-0.5
CC(=O)Nc1ccccc1OCc1nnc(-c2ccc(Cl)cc2)o1	nt	0.669	-13.4	0.4	-3.9	-23.1	-18.8	-4.1	0.2	-0.8
COc1ccc(S(=O)(=O)Nc2ccccc2N2CCOCC2)cc1OC	i	0.677	nt	0.3	-0.1	14.9	13.2	3.9	0.9	0.0
COCCN1C(=O)C(O)=C(C(=O)c2cccs2)C1c1ccccc1 (stereo not given)	nt	0.71	-6.3	11.0	1.5	nt	nt	nt	nt	0.2
CCOc1ccc(CN2C(=O)c3ccccc3C2=O)cc1C(=O)NC1CC(C)(C)NC(C)(C)C1	i	0.697	nt	2.2	1.2	12.8	3.9	3.8	-1.5	1.3
COc1ccc(-n2c(O)c(C=NCc3ccccn3)c3ccccc3c2=O)c(OC)c1	i	0.675	8.7	9.1	-2.0	-8.8	-4.0	-1.2	4.4	0.5
C=CCn1c(SCc2ccccc2)nc2scc(-c3ccc(C)o3)c2c1=O	nt	0.746	-10.1	-9.3	-1.4	nt	nt	nt	nt	0.3
C#Cc1cccc(C(=O)N2CCCC(C(=O)c3ccc(OC)cc3C)C2)c1 (stereo not given)	i	0.709	-13.1	3.8	0.0	-5.4	-30.1	-1.4	0.8	0.2
CCC(NC(=O)C1CCCO1)c1ccccc1 (stereo not given)	i	0.653	-5.9	4.3	-24.3	25.7	17.1	4.4	1.1	0.6
CCC(Cc1ccccc1)NC(=O)c1cc(S(=O)(=O)N2CCCCC2)c[nH]1 (stereo not given)	i	0.727	-2.8	4.1	-3.8	0.8	-2.8	7.1	-2.4	-0.7
CC(Sc1ccc(S(=O)(=O)N(C)C)cn1)C(=O)NC1CCCC1 (stereo not given)	i	0.649	nt	0.2	-3.8	4.9	6.7	2.7	-0.9	0.5
COc1ccccc1N1CCN(C(=O)c2cn(Cc3ccccc3)nc2-c2cccnc2)CC1	i	0.639	nt	1.7	-10.9	-0.7	-11.3	-0.1	0.8	0.2
O=C(CCNS(=O)(=O)c1ccccc1)NCC1CCCCC1	i	0.633	nt	3.4	nt	4.8	4.0	-0.1	-0.7	nt
CN(CCOc1ccccc1)CC(=O)Nc1ccc(Cl)cc1[N+](=O)[O-]	i	0.714	7.1	0.8	-1.9	-6.2	-8.3	0.0	2.1	-1.1
COc1ccc(-c2ccc(SCC(=O)Nc3nccs3)nn2)cc1OC	i	0.659	-3.6	2.1	-6.2	4.7	2.5	-0.4	-2.3	-0.6

The final 2 compounds of the part above open the next one.
SMILES	FGF22 binding	E coli growth	T cruzi repl	UCH37 inh	Beta apoptosis	rRNA inh HTS	rRNA inh HTS OD600	rRNA inh HTS RFP	MLL AF4-AF9 inh	Bfl-1 A1 inh
CN(CCOc1ccccc1)CC(=O)Nc1ccc(Cl)cc1[N+](=O)[O-]	i	0.714	7.1	0.8	-1.9	-6.2	-8.3	0.0	2.1	-1.1
COc1ccc(-c2ccc(SCC(=O)Nc3nccs3)nn2)cc1OC	i	0.659	-3.6	2.1	-6.2	4.7	2.5	-0.4	-2.3	-0.6
O=C1CSc2ccccc2N1Cc1ccccc1F	i	0.698	3.6	1.8	-7.3	-53.4	-46.4	-18.0	-3.1	-0.4
Cc1ccc(S(=O)(=O)N(C)C)cc1NC(=S)Nc1ccc2[nH]c(=O)[nH]c2c1	i	0.625	-6.0	-0.8	-2.9	12.4	23.0	3.0	-2.2	-1.5
Cc1cc(NC(=O)CSc2nnc(-c3cccc(F)c3)n2N)no1	i	0.69	nt	1.0	-1.0	21.8	15.7	2.0	-1.2	-0.5
O=C(Cc1cccs1)NCCS(=O)(=O)N1CCN(c2ccccc2F)CC1	i	0.659	-10.4	0.1	nt	6.0	4.6	-0.4	0.6	-0.3
CC1(C)Cc2c(C#N)c(NC3CCCCC3)nc(-c3ccco3)c2CO1	nt	0.734	9.1	-334.9	-3.5	nt	nt	nt	nt	0.3
CC(C)CCNC1=NCCCCC1	nt	0.677	0.3	5.9	-0.3	nt	nt	nt	nt	0.9
CCCCCCCCCC(=O)NNC(=O)c1c(O)c2ccccc2n(CCC)c1=O	i	0.627	-7.7	-6.1	6.4	12.3	7.0	0.2	-0.3	1.2
O=C(O)c1cn2c3c(ccc(Cl)c3c1=O)OCC2	i	0.64	-9.5	-232.3	-1.7	-2.0	-9.4	-3.3	-6.3	0.5
Cc1ccc(-n2c(SCn3nnc4ccccc4c3=O)nnc2-c2cccnc2)c(C)c1	i	0.72	39.2	0.2	-2.4	-0.8	-3.7	-3.1	8.5	-0.1
CC1CCN(S(=O)(=O)c2ccc3ncn(CC(=O)N(C)C4CCCCC4)c(=O)c3c2)CC1	i	0.675	24.7	4.5	-10.7	16.7	11.1	-0.6	-0.7	-1.2
CCCCOc1ccc(C(=O)N/C(=C/C=C/c2ccccc2)C(=O)N2CCOCC2)cc1	nt	0.701	14.4	0.4	-8.3	nt	nt	nt	nt	-0.1
Cc1cccnc1NC(=O)C1CCCN(S(=O)(=O)c2ccc3c(c2)oc(=O)n3C)C1 (stereo not given)	i	0.716	6.7	7.2	-4.3	7.3	10.5	-0.5	-0.5	1.3
Cc1onc(-c2ccccc2)c1-c1n[nH]c(=S)n1-c1ccc(C(=O)O)cc1	nt	0.701	-7.6	0.3	-9.9	8.8	3.7	-1.4	nt	1.2
Cc1c(Br)c([N+](=O)[O-])nn1CC(=O)N1CCN(C23CC4CC(CC(C4)C2)C3)CC1	i	0.709	28.4	0.8	-4.6	15.8	10.0	1.8	0.0	0.6
COc1ccc(CCC(=O)NCCS(=O)(=O)N2CCN(c3ccccc3F)CC2)cc1	i	0.722	-6.2	1.3	-4.7	8.7	5.0	2.2	-0.6	0.2
CCOc1ccccc1Nc1ccc2nonc2c1[N+](=O)[O-]	i	0.68	8.5	3.7	-3.5	5.2	9.0	-1.4	-18.8	-1.3
CC(c1nnnn1C(C)(C)C)N(Cc1cccnc1)Cc1ccccc1Cl (stereo not given)	nt	0.717	65.9*	1.1	7.3	nt	nt	nt	nt	0.0
COc1ccccc1C(=O)NCC(=O)Nc1cccnc1	nt	0.685	-15.1	4.3	-0.4	nt	nt	nt	nt	-1.0
CCOc1ccc2nc(N3CCC(C(=O)N4CCN(c5ncccn5)CC4)CC3)sc2c1	i	0.745	8.8	2.1	-0.2	0.4	-7.7	3.4	0.2	-0.1
CCC(C)(C(=O)NC1CCCC1)N(C(=O)Cc1cccs1)c1c(C)n(C)n(-c2ccccc2)c1=O (stereo not given)	i	0.721	-5.7	2.2	-3.4	11.8	13.0	-2.8	-0.3	1.4
COc1ccc(/C=C(\C#N)c2cc(OC)c(OC)cc2[N+](=O)[O-])cc1	i	0.684	-1.3	4.2	-0.2	-6.0	3.9	-9.4	-5.0	-0.1
COc1cc(CNc2ccccc2)c([N+](=O)[O-])cc1OC	i	0.657	-6.1	2.5	1.9	-2.5	-4.6	-5.3	7.2	-0.5
Cc1cc(Nc2ncc(Cl)cc2Cl)n(-c2ccccc2)n1	i	0.683	0.3	-0.8	-1.4	-10.4	-21.5	-12.8	1.2	0.2
COc1ccc(N2CCN(C(=O)C3COc4ccccc4O3)CC2)cc1 (stereo not given)	nt	0.726	-7.6	1.1	3.1	nt	nt	nt	nt	-0.3
CC(C)[C@H](NC(=O)c1ccccc1)C(=O)Nc1cccc(S(=O)(=O)N2CCOCC2)c1	i	0.651	nt	2.4	-8.9	3.2	13.7	-1.3	3.7	0.0
CC(C)NC(=O)c1ccc2c(c1)nnn2C	nt	0.683	-9.3	-0.2	-3.1	nt	nt	nt	nt	-1.6
CC1CC1C(=O)N1CCN(S(=O)(=O)c2cccc(F)c2)CC1 (stereo not given)	i	0.655	3.1	2.9	-10.3	0.3	-1.5	-0.4	-15.8	-0.3
COc1ccc(-c2nnc(SCC(=O)Nc3cc(C)on3)n2N)cc1OC	nt	0.713	-17.5	-0.8	7.7	nt	nt	nt	nt	-0.8
Nc1nc2n(n1)C(c1ccccc1)CC(c1ccc(F)cc1)N2 (stereo not given)	nt	0.739	2.8	1.5	1.2	6.0	6.6	-0.3	-1.7	0.3
CC(Oc1cc2oc(=O)c3c(c2cc1Cl)CCCC3)C(=O)NCCN1CCOCC1 (stereo not given)	i	0.672	10.3	-9.8	4.8	-14.8	-11.9	4.3	-0.1	0.6
Cc1cccc(NS(=O)(=O)c2ccc(C)c(C(=O)OCC(=O)Nc3cc(C)on3)c2)c1	nt	0.679	6.1	0.6	-3.9	nt	nt	nt	nt	0.9
C=CCN(CC=C)Cc1c(O)ccc2c1oc(=O)c1ccccc12	nt	0.646	-0.8	-15.0	nt	nt	nt	nt	nt	-0.3
O=C(O)c1cc(N=Nc2c(O)ccc3ccccc23)cc(C(=O)O)c1	nt	0.692	nt	26.4*	nt	10.8	15.1	0.5	-1.7	nt
COCCCN=Cc1c(C)[nH]n(-c2ccc(Br)cc2Br)c1=O	nt	0.733	-3.0	4.8	-1.8	12.4	11.1	1.2	-0.5	0.7
COc1cccc(CNC(=O)CCC(=O)N2Cc3cccc(OC)c3Oc3ncccc32)c1OC	i	0.69	14.0	-0.6	-10.8	5.5	-2.0	0.1	-7.4	-0.1
c1csc(CNc2ncnc3sccc23)c1	nt	0.664	-27.5	4.9	79.9*	nt	nt	nt	nt	0.3
Clc1cccc(Cl)c1C1=NOC(c2nnc(-c3ccccc3)o2)C1 (stereo not given)	i	0.683	-14.5	0.3	3.5	-25.6	-31.1	2.5	1.1	1.9
